Source: PubChem
A1 apoptosis 2 = compounds inhibiting A1, read as caspase activation; MEF A1-2A-BIM cells, caspase-Glo luminescence, 3 h; percent of clofoctol response, DMSO zero; caspase activation, % (test concentration not listed); 24,000 tested, under 10 active; AID 2465; in the data active = caspase activation above about 5.9%;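 note: wells of about 30 µL received 50 nL stock; the first replicate is given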
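Test system – A1-2A-BIM-expressing MEF cells · Input – 2500 cells/well · Medium – RPMI-1640 growth medium with 10% FBS · Compound dosing – 50 nL pinned compound · Timing – 3 h compound exposure at 37 °C · Technique – Caspase-Glo luminescence (DEVD substrate) · Evaluation – Caspase-3/7 activity from luminescence increase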
Numbers without * were called inactive.

SMILES	A1 apoptosis 2
COc1ccc(S(=O)(=O)Nc2cccc3c2O[C@@H](CN(C)C(=O)Nc2c(C)noc2C)[C@@H](C)CN([C@@H](C)CO)C3=O)cc1	-0.8
Cc1ccc(S(=O)(=O)N(C)C[C@H]2Oc3ccc(NC(=O)NC4CCCCC4)cc3CC(=O)N([C@@H](C)CO)C[C@@H]2C)cc1	0.5
COc1ccc(NC(=O)N(C)C[C@H]2OCCCC[C@@H](C)Oc3ccc(NC(=O)c4ccncc4)cc3C(=O)N([C@H](C)CO)C[C@H]2C)cc1	-0.6
COc1ccc(CN(C)C[C@@H]2Oc3ccc(NS(=O)(=O)c4ccc(OC)cc4)cc3C(=O)N([C@@H](C)CO)C[C@@H]2C)cc1	0.6
C[C@@H]1CN([C@H](C)CO)C(=O)c2cccc(NC(=O)Nc3ccc4c(c3)OCO4)c2O[C@H]1CN(C)S(=O)(=O)c1ccc(Cl)cc1	1.1
CC(C)NC(=O)N(C)C[C@@H]1OCCCC[C@H](C)Oc2ccc(NC(=O)Nc3cccc4ccccc34)cc2C(=O)N([C@H](C)CO)C[C@@H]1C	-0.6
C[C@H]1CCCCO[C@@H](CN(C)Cc2ccccc2)[C@@H](C)CN([C@@H](C)CO)C(=O)c2cc(NS(C)(=O)=O)ccc2O1	-1.3
C[C@@H]1CN([C@H](C)CO)C(=O)c2cc(NC(=O)NC3CCCCC3)ccc2O[C@@H](C)CCCCO[C@H]1CN(C)Cc1ccncc1	1.8
Cc1ccc(S(=O)(=O)N(C)C[C@@H]2Oc3c(NC(=O)c4ccncc4)cccc3C(=O)N([C@@H](C)CO)C[C@H]2C)cc1	0.9
CC(C)NC(=O)Nc1ccc2c(c1)C(=O)N([C@@H](C)CO)C[C@H](C)[C@H](CN(C)Cc1ccccc1)O2	-0.6
COC(=O)c1c2oc(c1C(=O)OC)C(=O)N[C@@H](Cc1ccccc1)Cn1cc(nn1)CNC(=O)[C@@H](Cc1ccccc1)NC(=O)N[C@@H](CO)CC2	1.2
COc1ccc(S(=O)(=O)Nc2ccc3c(c2)CC(=O)N([C@H](C)CO)C[C@H](C)[C@H](CN(C)Cc2ccc(-c4ccccc4)cc2)O3)cc1	-0.8
C[C@@H]1CCCCO[C@H](CN(C)C(=O)Nc2ccc(C(F)(F)F)cc2)[C@H](C)CN([C@@H](C)CO)C(=O)c2cc(NC(=O)Nc3ccc4c(c3)OCO4)ccc2O1	-0.5
COc1ccc(S(=O)(=O)Nc2ccc3c(c2)C(=O)N([C@@H](C)CO)C[C@@H](C)[C@H](CN(C)CC2CC2)O3)cc1	-0.1
C[C@@H]1CN([C@H](C)CO)C(=O)Cc2cc(NC(=O)Cc3ccccc3)ccc2O[C@@H]1CN(C)Cc1ccccc1	-0.6
C[C@H]1CCCCO[C@H](CN(C)Cc2ccc(C(=O)O)cc2)[C@@H](C)CN([C@@H](C)CO)C(=O)c2cc(NC(=O)Cc3ccccc3)ccc2O1	0.4
C[C@@H]1CN([C@@H](C)CO)C(=O)c2cc(NC(=O)C3CC3)ccc2O[C@H]1CN(C)Cc1ccc(Oc2ccccc2)cc1	-0.7
COc1ccc(S(=O)(=O)N(C)C[C@@H]2Oc3c(cccc3N(C)C)C(=O)N([C@@H](C)CO)C[C@@H]2C)cc1	-0.7
C[C@H]1CN([C@@H](C)CO)C(=O)c2cccc(NC(=O)Nc3ccc4c(c3)OCO4)c2O[C@H]1CN(C)Cc1ccc(-c2ccccc2)cc1	-1.4
O=C(O)c1ccc(/C=N/NC(=O)c2ccc(C(=O)NO)cc2)cc1	0.8
C[C@@H]1CN([C@@H](C)CO)C(=O)Cc2cc(NS(C)(=O)=O)ccc2O[C@H]1CN(C)C(=O)Nc1ccc(C(F)(F)F)cc1	1.0
C[C@@H]1CN([C@@H](C)CO)C(=O)c2cc(NC(=O)Cn3cnnn3)ccc2O[C@@H]1CN(C)C(=O)Nc1ccc2c(c1)OCO2	0.8
Cc1noc(C)c1S(=O)(=O)Nc1ccc2c(c1)C(=O)N([C@H](C)CO)C[C@@H](C)[C@H](CN(C)C)O2	0.4
CC(C)NC(=O)N(C)C[C@H]1Oc2ccc(NC(=O)Cc3ccccc3)cc2C(=O)N([C@H](C)CO)C[C@@H]1C	0.0
COc1ccc(S(=O)(=O)N(C)C[C@@H]2Oc3c(NC(=O)c4cc(C)nn4C)cccc3C(=O)N([C@@H](C)CO)C[C@@H]2C)cc1	0.5
C[C@@H]1CN([C@@H](C)CO)C(=O)c2cccc(NS(=O)(=O)c3ccccc3)c2O[C@@H]1CN(C)C	0.9
C[C@@H]1CN([C@H](C)CO)C(=O)c2cc(NS(=O)(=O)c3ccccc3)ccc2O[C@@H](C)CCCCO[C@@H]1CN(C)CC1CCCCC1	0.7
COc1ccc(NC(=O)N(C)C[C@H]2Oc3ccc(NC(=O)C4CC4)cc3CC(=O)N([C@H](C)CO)C[C@@H]2C)cc1	0.3
CC(C)NC(=O)N(C)C[C@H]1Oc2ccc(NS(=O)(=O)c3ccc(Cl)cc3)cc2C(=O)N([C@@H](C)CO)C[C@H]1C	1.2
C[C@@H]1CN([C@H](C)CO)C(=O)c2cc(NC(=O)C3CCCCC3)ccc2O[C@@H]1CN(C)S(=O)(=O)c1ccc(Cl)cc1	0.2
C[C@H](CO)N1C[C@H](C)[C@H](CN(C)C(=O)Nc2ccccc2)Oc2c(NC(=O)Nc3ccc(C(F)(F)F)cc3)cccc2C1=O	-0.2
C[C@@H]1CN([C@H](C)CO)C(=O)CCCn2cc(nn2)CO[C@H]1CN(C)C(=O)Nc1cccc2ccccc12	-0.1
COc1ccc(NC(=O)Nc2ccc3c(c2)CC(=O)N([C@@H](C)CO)C[C@H](C)[C@H](CN(C)C(=O)Nc2ccc(OC)cc2)O3)cc1	0.9
C#Cc1ccc([C@H]2C=C(C(=O)N3CCOCC3)O[C@@H](OCCCCO)C2)cc1	0.1
C[C@@H]1CN([C@@H](C)CO)C(=O)Cc2cc(NC(=O)C3CCCCC3)ccc2O[C@H]1CN(C)C(=O)Nc1ccc2c(c1)OCO2	1.3
Cc1noc(C)c1NC(=O)Nc1cccc2c1O[C@H](CN(C)C(=O)NC(C)C)[C@@H](C)CN([C@@H](C)CO)C2=O	-1.3
C[C@@H]1CCCCO[C@@H](CN(C)S(=O)(=O)c2ccccc2)[C@H](C)CN([C@@H](C)CO)C(=O)c2cc(NC(=O)C3CCCCC3)ccc2O1	0.3
C[C@@H]1CCCCO[C@@H](CN(C)Cc2ccc3c(c2)OCO3)[C@H](C)CN([C@@H](C)CO)C(=O)c2cc(NC(=O)c3ccncc3)ccc2O1	-1.8
C[C@@H]1CN([C@H](C)CO)C(=O)c2cc(NC(=O)c3ccncc3)ccc2O[C@@H]1CN(C)C	0.1
COc1ccc(S(=O)(=O)Nc2ccc3c(c2)C(=O)N([C@H](C)CO)C[C@H](C)[C@H](CN(C)C(=O)CCC(F)(F)F)OCCCC[C@@H](C)O3)cc1	-0.1
C[C@H]1CN([C@@H](C)CO)C(=O)CCCn2cc(nn2)CO[C@H]1CN(C)Cc1ccc2c(c1)OCCN2C	2.2
C[C@H](CO)N1C[C@H](C)[C@H](CN(C)C(=O)Nc2ccccc2)Oc2ccc(NC(=O)Nc3ccc4c(c3)OCO4)cc2C1=O	-0.6
Cc1noc(C)c1S(=O)(=O)Nc1cccc2c1O[C@@H](CN(C)Cc1ccc(C(F)(F)F)cc1)[C@@H](C)CN([C@H](C)CO)C2=O	-1.0
COc1ccc(NC(=O)N(C)C[C@@H]2Oc3ccc(NS(=O)(=O)c4cn(C)cn4)cc3CC(=O)N([C@H](C)CO)C[C@@H]2C)cc1	1.1
C[C@H](CO)N1C[C@H](C)[C@H](CN(C)C)Oc2ccc(NC(=O)CCN3CCOCC3)cc2C1=O	1.0
CNC[C@@H]1Oc2c(NC(=O)c3nc4ccccc4s3)cccc2C(=O)N([C@@H](C)CO)C[C@@H]1C	0.5
C[C@@H]1CN([C@@H](C)CO)C(=O)Cc2cc(N(C)C)ccc2O[C@H]1CN(C)C	1.3
Cc1ccc(S(=O)(=O)Nc2ccc3c(c2)CC(=O)N([C@H](C)CO)C[C@@H](C)[C@@H](CN(C)Cc2ccc(-c4ccccc4)cc2)O3)cc1	-0.3
Cc1noc(C)c1S(=O)(=O)Nc1ccc2c(c1)CC(=O)N([C@H](C)CO)C[C@H](C)[C@@H](CN(C)Cc1ccc(C(=O)O)cc1)O2	0.9
C[C@H]1CN([C@@H](C)CO)C(=O)c2cc(NC(=O)Cn3cnnn3)ccc2O[C@H]1CN(C)Cc1ccc(C(=O)Nc2ccccc2N)cc1	1.0

The list continues:
SMILES	A1 apoptosis 2
C[C@@H]1CCCCO[C@@H](CN(C)C)[C@H](C)CN([C@H](C)CO)C(=O)c2cc(NC(=O)Nc3ccc4c(c3)OCO4)ccc2O1	0.6
Cc1noc(C)c1S(=O)(=O)N(C)C[C@@H]1OCCCC[C@H](C)Oc2ccc(NC(=O)Nc3ccc4c(c3)OCO4)cc2C(=O)N([C@H](C)CO)C[C@H]1C	-0.8
Cc1noc(C)c1NC(=O)Nc1ccc2c(c1)C(=O)N([C@H](C)CO)C[C@H](C)[C@H](CN(C)C(=O)NC1CCCCC1)O2	1.5
COc1ccc(CN(C)C[C@@H]2OCCCC[C@@H](C)Oc3ccc(NS(=O)(=O)c4ccc(F)cc4)cc3C(=O)N([C@H](C)CO)C[C@H]2C)cc1	0.5
C[C@@H]1CN([C@H](C)CO)C(=O)c2cc(NC(=O)Nc3ccc(C(F)(F)F)cc3)ccc2O[C@@H]1CN(C)S(=O)(=O)c1ccccc1	0.8
C[C@@H]1CN([C@@H](C)CO)C(=O)Cc2cc(NS(=O)(=O)c3ccc(F)cc3)ccc2O[C@H]1CN(C)CC1CC1	-0.2
C[C@@H]1CN([C@@H](C)CO)C(=O)c2cccc(N(C)C)c2O[C@@H]1CN(C)CC1CC1	-1.2
C[C@H]1CCCCO[C@H](CN(C)C(=O)c2ccccc2)[C@@H](C)CN([C@@H](C)CO)C(=O)c2cc(NS(C)(=O)=O)ccc2O1	0.5
COc1ccc(NC(=O)N(C)C[C@H]2Oc3c(cccc3N(C)C)C(=O)N([C@H](C)CO)C[C@@H]2C)cc1	0.0
CC(C)COC(=O)N(C)C[C@H]1OCc2cn(nn2)CCCC(=O)N([C@H](C)CO)C[C@H]1C	0.2

3 structures out of the list, arranged by count of non-hydrogen atoms, ascending.
SMILES	A1 apoptosis 2
COc1ccc(NC(=O)N(C)C[C@H]2Oc3c(cccc3N(C)C)C(=O)N([C@H](C)CO)C[C@@H]2C)cc1	0.0
C[C@@H]1CN([C@H](C)CO)C(=O)c2cc(NC(=O)Nc3ccc(C(F)(F)F)cc3)ccc2O[C@@H]1CN(C)S(=O)(=O)c1ccccc1	0.8
Cc1noc(C)c1S(=O)(=O)N(C)C[C@@H]1OCCCC[C@H](C)Oc2ccc(NC(=O)Nc3ccc4c(c3)OCO4)cc2C(=O)N([C@H](C)CO)C[C@H]1C	-0.8

Exported as labelled records: 4 of the compounds above
smiles: C[C@@H]1CN([C@@H](C)CO)C(=O)c2cccc(N(C)C)c2O[C@@H]1CN(C)CC1CC1
  A1 apoptosis 2: -1.2
smiles: C[C@@H]1CCCCO[C@@H](CN(C)C)[C@H](C)CN([C@H](C)CO)C(=O)c2cc(NC(=O)Nc3ccc4c(c3)OCO4)ccc2O1
  A1 apoptosis 2: 0.6
smiles: Cc1noc(C)c1NC(=O)Nc1ccc2c(c1)C(=O)N([C@H](C)CO)C[C@H](C)[C@H](CN(C)C(=O)NC1CCCCC1)O2
  A1 apoptosis 2: 1.5
smiles: C[C@H]1CCCCO[C@H](CN(C)C(=O)c2ccccc2)[C@@H](C)CN([C@@H](C)CO)C(=O)c2cc(NS(C)(=O)=O)ccc2O1
  A1 apoptosis 2: 0.5

Other records follow.
SMILES	A1 apoptosis 2
COc1ccc(CN(C)C[C@@H]2Oc3c(NC(=O)Nc4ccc5c(c4)OCO5)cccc3C(=O)N([C@H](C)CO)C[C@H]2C)cc1	0.8
Cc1ccc(S(=O)(=O)N(C)C[C@@H]2Oc3ccc(NC(=O)CCC(F)(F)F)cc3C(=O)N([C@H](C)CO)C[C@H]2C)cc1	0.2
C[C@H](CO)N1C[C@H](C)[C@@H](CN(C)C(=O)CCCN(C)C)OCCCC[C@H](C)Oc2ccc(N(C)C)cc2C1=O	0.8
C[C@@H]1CN([C@H](C)CO)C(=O)c2cc(NC(=O)Cc3cn(C)c4ccccc34)ccc2O[C@@H]1CN(C)Cc1ccncc1	1.3
C[C@@H]1CN([C@@H](C)CO)C(=O)c2cccc(NC(=O)NC3CCCCC3)c2O[C@@H]1CN(C)C(=O)NC1CCCCC1	1.7
CNC[C@@H]1OCCCC[C@@H](C)Oc2ccc(NS(=O)(=O)c3ccc(F)cc3)cc2C(=O)N([C@H](C)CO)C[C@H]1C	1.1
Cc1cccc(CN(C)C[C@H]2OCc3cn(nn3)CCCC(=O)N([C@H](C)CO)C[C@H]2C)c1	-1.1
C[C@H]1CN([C@@H](C)CO)C(=O)c2cc(NC(=O)CCC(F)(F)F)ccc2O[C@@H]1CN(C)C(=O)Nc1ccc(C(F)(F)F)cc1	0.1
C[C@@H]1CN([C@@H](C)CO)C(=O)Cc2cc(NC(=O)Nc3cccc4ccccc34)ccc2O[C@H]1CN(C)CC1CCCCC1	2.1
C[C@H](CO)N1C[C@H](C)[C@@H](CN(C)C(=O)NC2CCCCC2)Oc2c(NC(=O)c3ccc(-c4nccs4)cc3)cccc2C1=O	0.7
C[C@@H]1CCCCO[C@H](CN(C)C(=O)NC2CCCCC2)[C@@H](C)CN([C@H](C)CO)C(=O)c2cc(NC(=O)c3ccccc3)ccc2O1	0.3
C[C@@H]1CCCCO[C@@H](CN(C)C(=O)Nc2ccc(C(F)(F)F)cc2)[C@@H](C)CN([C@H](C)CO)C(=O)c2cc(NC(=O)c3ccncc3)ccc2O1	-0.5

An excerpt (hit frequency here may not be typical).
